A488 fluor – compound fluoresces in the A488 spectral region. AID 591. 59,000 tested, 0.1% active. compound autofluorescence, A488 spectral region, dye equivalency; active compounds read high. max dye equivalency, M; active = above 10 nM dye equivalent; inconclusive = 1 to 10 nM; inactive = 1 nM or less; about half of its hits are not listed in these tables;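 also: highest value over a series up to 38 µM; compound alone in buffer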
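Compounds pin-transferred into 100 mM Tris buffer, pH 8.0, incubated 15 min at room temperature, then imaged with 480 nm excitation/540 nm emission filters. Fluorescence converted to Alexa 488 dye-equivalent concentration via an on-plate six-point A488 standard curve.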
A647 autofl – A647 region autofluorescence | Compound fluorescence, A647 channel (570/671 nm), Tris buffer | max dye-equivalent concentration, M | 59,000 tested, under 10 active; active means above 1 µM dye equivalent; inconclusive means 0.1 to 1 µM; inactive means 0.1 µM or less;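 also: values scaled relative to a standard on each plate; highest value over a series up to 38 µM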
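Compound fluorescence was measured in 100 mM Tris buffer, pH 8.0, after 15 min at room temperature, using 570 nm excitation and 671 nm emission filters. Signal was normalized to a per-plate Alexa 647 standard curve and expressed as dye-equivalent concentration at each compound concentration.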
Resorufin autofl – compounds fluorescent in resorufin spectral region; Compound fluorescence, resorufin region 547/598 nm, buffer; active compounds read high; max dye-equivalent concentration, M; 59,000 tested, 0.04% active; active = above 10 nM dye equivalent; inconclusive = 1 to 10 nM; inactive = 1 nM or less; a few of its hits are not listed in these tables; also: highest value over a series up to 38 µM
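Read-out: intrinsic compound fluorescence at ex 547/em 598 nm after 15 min at RT in pH 8.0 Tris (100 mM). Values expressed as resorufin-equivalent concentration from per-plate standard series.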
AID923 – qHTS Assay for Allosteric/Competitive Inhibitors of Caspase-1: Spectroscopic Profiling in AFC Spectral Region | compound fluorescence, AFC spectral region (405/520 nm); almost no hit is shown here | Potency, µM (titrated, usually from 57.5 µM), without a hit: top-dose fluorescence increase, usual class: activators | 75,000 tested, 1.1% active | AID 923, 2007; active = well fitted activation curve with a large enough effect; inconclusive = small, poorly fitted or top-dose-only effect;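 also: potency is read from the fitted curve at half-maximal effect; 0% is about no effect; scaled to a free AFC standard on each plate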
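Baseline compound fluorescence (AFC region, 405 nm ex/520 nm em) taken from the intercept of kinetic reads with 50 nM caspase-1 and 5 uM Ac-WEHD-AFC; normalized to an on-plate AFC standard curve; compounds titrated up to 57 uM.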
TSHR agonist – agonists of human thyroid stimulating hormone receptor. HEK293-CNG-TSHR cells (CNG channel as cAMP sensor), membrane potential dye, cAMP. Potency, µM (top dose mostly 57.1 µM), for inactives: top-dose activation, actives largely listed as activators. 73,000 tested, 0.48% active. AID 926; active = well fitted activation curve of enough size with the parental cells flat; inconclusive = any curve in the parental cells; inactive = parental cells flat and receptor cells flat or falling; also: potency is read from the fitted curve at half-maximal effect; % of control where 0% means no effect; weak receptor curves with flat parental cells got no call and are not listed
Target sequence (P16473 whole entry, looked up): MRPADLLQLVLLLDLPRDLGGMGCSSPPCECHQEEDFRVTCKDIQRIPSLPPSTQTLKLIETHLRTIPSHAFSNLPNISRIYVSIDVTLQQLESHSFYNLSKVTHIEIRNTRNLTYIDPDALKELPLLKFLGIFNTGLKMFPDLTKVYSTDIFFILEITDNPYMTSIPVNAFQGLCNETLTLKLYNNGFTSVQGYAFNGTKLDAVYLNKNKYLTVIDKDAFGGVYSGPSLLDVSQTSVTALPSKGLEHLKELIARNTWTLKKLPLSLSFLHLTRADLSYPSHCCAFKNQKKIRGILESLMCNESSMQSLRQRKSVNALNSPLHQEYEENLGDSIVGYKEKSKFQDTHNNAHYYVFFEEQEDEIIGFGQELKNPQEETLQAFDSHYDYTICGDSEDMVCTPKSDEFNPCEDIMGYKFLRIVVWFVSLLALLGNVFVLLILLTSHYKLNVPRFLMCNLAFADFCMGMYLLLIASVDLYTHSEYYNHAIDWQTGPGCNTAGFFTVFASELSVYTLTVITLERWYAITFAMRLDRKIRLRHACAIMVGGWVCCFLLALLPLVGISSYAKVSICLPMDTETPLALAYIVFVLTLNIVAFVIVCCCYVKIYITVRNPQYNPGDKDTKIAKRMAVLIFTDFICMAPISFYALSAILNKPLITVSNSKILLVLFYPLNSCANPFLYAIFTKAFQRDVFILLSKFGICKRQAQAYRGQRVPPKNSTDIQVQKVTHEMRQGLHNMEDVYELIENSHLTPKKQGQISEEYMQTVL
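HEK 293 cells stably expressing TSHR and a modified CNG channel, with CNG-only parental cells as counterscreen, were preloaded 60 min at room temperature with membrane potential dye containing 100 uM RO 20-1724. Compound exposure was 30 min, and depolarization was read as fluorescence at 590 nm.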
The depositor's hits bear a star; [ ] = remark or other dose. Not all compounds are listed, so the mix of outcomes need not match the whole.

Screening COC(=O)N1CCC2(CC1)CCN(c1ccncc1)CC2 returned A488 fluor inactive, A647 autofl 4.3e-09, Resorufin autofl inactive, AID923 1.5% and TSHR agonist 21%.
Screening CCOc1ccccc1C(=O)NCCCn1ccnc1 returned A488 fluor inactive, A647 autofl 1e-09, Resorufin autofl inactive, AID923 1.2% and TSHR agonist 4%.
O=c1c2cnn(-c3ccc(F)cc3)c2ncn1Cc1ccccn1 was read as A488 fluor inactive, A647 autofl 6.8e-09, Resorufin autofl inactive, AID923 -0.2% and TSHR agonist 16%.
Screening Oc1c(C=NCc2ccncc2)sc2ccccc12 returned A488 fluor inactive, A647 autofl 1e-09 and Resorufin autofl inactive.
Screening O=c1[nH]c2ccc(Cl)cc2c(=O)n1Cc1ccco1 returned A488 fluor inactive, A647 autofl 2e-08, Resorufin autofl inactive, AID923 0.1% and TSHR agonist -10%.
For CCOc1cc(S(=O)(=O)N2CCN(CC)CC2)ccc1Cl the results were A488 fluor inactive, A647 autofl 5e-09, Resorufin autofl inactive, AID923 -0.6% and TSHR agonist 3%.
COc1ccc(-c2cc3nc(C)cc(NCCO)n3n2)cc1 was read as A488 fluor inactive, A647 autofl 2.5e-08, Resorufin autofl inactive, AID923 2.1% and TSHR agonist -2%.
C=CCOn1c(=O)c(-c2ccc(OC)cc2)[n+]([O-])c2ccccc21 was read as A488 fluor inactive, A647 autofl 1e-09 and Resorufin autofl inactive.
Cc1c(-n2c(SCC(=O)O)nnc2-c2ccccc2Cl)c(=O)n(-c2ccccc2)n1C was read as A488 fluor inactive, A647 autofl 4.3e-09, Resorufin autofl inactive, AID923 -1.0% and TSHR agonist 26%.
Screening CCOC(=O)C1CCN(C(=O)C2CCN(S(=O)(=O)c3cccc4cccnc34)CC2)CC1 returned AID923 2.8% and TSHR agonist 8%.
For Cc1cc(C(=O)CSc2nnnn2C)c(C)n1CCc1ccc(F)cc1 the results were A488 fluor inactive, A647 autofl 3.1e-09, Resorufin autofl inactive, AID923 1.2% and TSHR agonist 2%.
CCOc1ccc(C2C(C#N)=C(N)Oc3n[nH]c(C)c32)cc1OC(=O)C1CC1 (stereo not drawn) was read as A488 fluor inactive, A647 autofl 4.9e-08, Resorufin autofl inactive, AID923 -1.4% and TSHR agonist 6%.
Screening CCOC(=O)C1=C(O)CCn2c1nc1ccccc12 returned A488 fluor inactive, A647 autofl 3.5e-09, Resorufin autofl inactive, AID923 0.5% and TSHR agonist -15%.
For CCOC(=O)C1CCN(C(=O)CCNC(=O)c2cc(OC)c(OC)c(OC)c2)CC1 the results were A488 fluor inactive, A647 autofl 1.6e-09, Resorufin autofl inactive, AID923 -0.2% and TSHR agonist 0%.
For COc1ccc(NC(=O)N(Cc2cccnc2)Cc2ccccc2Cl)c(OC)c1 the results were AID923 1.3% and TSHR agonist 15%.
`Cc1cccc(N2CCN(C(=O)CCNC(=O)Cn3ccc4ccccc4c3=O)CC2)c1C` gave A488 fluor inactive, A647 autofl 3.5e-08, Resorufin autofl inactive, AID923 -1.4% and TSHR agonist inconclusive.
`Cc1cc(Nc2cccc(C)c2C)n2nc(C)nc2n1` gave AID923 -1.3% and TSHR agonist 8%.
Screening COc1ccc(C(=O)Nc2ccc3oc(-c4cccc(F)c4)nc3c2)cc1OC returned AID923 3.1% and TSHR agonist -27%.
Screening COC(=O)c1ccccc1NC(=O)CSc1nc2c(c(=O)n(C)c(=O)n2C)n1C returned AID923 -0.7% and TSHR agonist 7%.
For CCOC(=O)C1CCCN(C(=O)c2cccs2)C1 (stereo not drawn) the results were A488 fluor inactive, A647 autofl 1e-09, Resorufin autofl inactive, AID923 0.9% and TSHR agonist -15%.

Pulled by compound from above, two records:
Screening CCOC(=O)C1=C(O)CCn2c1nc1ccccc12 returned A488 fluor inactive, A647 autofl 3.5e-09, Resorufin autofl inactive, AID923 0.5% and TSHR agonist -15%.
O=c1c2cnn(-c3ccc(F)cc3)c2ncn1Cc1ccccn1 was read as A488 fluor inactive, A647 autofl 6.8e-09, Resorufin autofl inactive, AID923 -0.2% and TSHR agonist 16%.

(next part)
`COc1ccccc1NC(=O)CSc1nnc(-c2ccncc2)o1` gave A488 fluor inactive, A647 autofl 1e-09, Resorufin autofl inactive, AID923 -0.7% and TSHR agonist inconclusive.
Screening CN(C(=O)COC(=O)COc1ccc(Cl)cc1)C1CCCCC1 returned A488 fluor inactive, A647 autofl 5.6e-09, Resorufin autofl inactive, AID923 -1.0% and TSHR agonist 12%.
`Cn1c(Cn2c(=O)sc3ccccc32)nnc1SCC(=O)N1CCCCCC1` gave AID923 -2.0% and TSHR agonist 2%.
Cc1ccc(-c2nnn(CC(=O)N(Cc3ccccc3)C(C(=O)NC(C)(C)C)c3ccncc3)n2)o1 (stereo not drawn) was read as A488 fluor inactive, A647 autofl 1e-09, Resorufin autofl inactive, AID923 -2.6% and TSHR agonist 29%.
O=C(NCC(=O)N(c1cccc(F)c1)C(C(=O)NCC1CCCO1)c1ccccc1)c1ccco1 (stereo not drawn) was read as A488 fluor inactive, A647 autofl 2.1e-08, Resorufin autofl inactive, AID923 0.2% and TSHR agonist 1%.
Screening Cc1csc(SCc2ccccc2C(=O)O)n1 returned A488 fluor inactive, A647 autofl 4.6e-09, Resorufin autofl inactive, AID923 -0.6% and TSHR agonist 4%.
Clc1ccc(CSc2nnc(-c3cccnc3)n2Cc2ccco2)c(Cl)c1 was read as A488 fluor inactive, A647 autofl 1e-09, Resorufin autofl inactive, AID923 -0.9% and TSHR agonist 22%.
Screening C=C(CC1([C@@H](NP(=O)(c2ccccc2)c2ccccc2)[C@H]2C[C@@H]2CCCC)CC1)c1ccccc1 returned AID923 1.2% and TSHR agonist 7%.
`O=C(NCC(=O)N(c1ccccc1)C(C(=O)NCC1CCCO1)c1ccccc1)c1ccco1` (stereo not drawn) gave A488 fluor inactive, A647 autofl 1e-09, Resorufin autofl inactive, AID923 -2.3% and TSHR agonist -8%.
Screening O=C1CC(c2ccco2)Cc2nc(N3CCc4ccccc4C3)ncc21 (stereo not drawn) returned A488 fluor inactive, A647 autofl 1e-09, Resorufin autofl inactive and AID923 1.5%.
Screening COc1cc(C2C(C#N)=C(N)Oc3cc(C)oc(=O)c32)ccc1OC(=O)N1CCOCC1 (stereo not drawn) returned A488 fluor inactive, A647 autofl 1.5e-08, Resorufin autofl inactive, AID923 3.1% and TSHR agonist 5%[11.4 µM].
Screening Cc1nn(Cc2ccccc2)c(C)c1NC(=O)c1cc(-c2ccco2)on1 returned A488 fluor inactive, A647 autofl 2.3e-08, Resorufin autofl inactive, AID923 -0.4% and TSHR agonist -3%.
CCN(CC)c1ccc(NC(=O)C2CC3CCC2C3)cc1 (stereo not drawn) was read as AID923 1.7% and TSHR agonist 20%.
`CC(=O)c1sc2nc(SCC(=O)N3CCCCC3)[nH]c(=O)c2c1C` gave A488 fluor inactive, A647 autofl 1.1e-08, Resorufin autofl inactive, AID923 0.8% and TSHR agonist 10%.
O=C(c1cnc2n(c1=O)CCS2)N(C1CCCCC1)C1CCCCC1 was read as AID923 1.0% and TSHR agonist -3%.
For COC(=O)c1ccccc1NC(=O)C1CC=CCC1C(=O)O (stereo not drawn) the results were A488 fluor inactive, A647 autofl 2.5e-08, Resorufin autofl inactive, AID923 -1.3% and TSHR agonist 26%.
Screening Clc1cccc(-c2nnc3sc(-c4ccccc4)nn23)c1 returned A488 fluor inactive, A647 autofl 1e-09, Resorufin autofl inactive, AID923 4.1% and TSHR agonist 26%.
Screening Cn1c(C(=O)NCCc2c[nH]c3ccccc23)cc2sccc21 returned AID923 0.2% and TSHR agonist 13%.
CCOC(=O)C1=C(C)N(C)C(=O)NC1c1cccc(O)c1 (stereo not drawn) was read as AID923 -1.7% and TSHR agonist 15%.
CC(C)C(NC(=O)c1ccccc1)C(=O)NC1=NCCS1 (stereo not drawn) was read as A488 fluor inactive, A647 autofl 1e-09, Resorufin autofl inactive, AID923 0.9% and TSHR agonist 2%.

Of the compounds above, these have two or more sulfur atoms:
`Cn1c(Cn2c(=O)sc3ccccc32)nnc1SCC(=O)N1CCCCCC1` gave AID923 -2.0% and TSHR agonist 2%.
Screening Cc1csc(SCc2ccccc2C(=O)O)n1 returned A488 fluor inactive, A647 autofl 4.6e-09, Resorufin autofl inactive, AID923 -0.6% and TSHR agonist 4%.
`CC(=O)c1sc2nc(SCC(=O)N3CCCCC3)[nH]c(=O)c2c1C` gave A488 fluor inactive, A647 autofl 1.1e-08, Resorufin autofl inactive, AID923 0.8% and TSHR agonist 10%.

Further compounds follow.
Screening Cc1ccc(CSc2nnc(Cn3c(=O)sc4ccccc43)n2C)cc1 returned AID923 -0.5% and TSHR agonist 5%.
CCOC(=O)C1CCN(c2ncnc3c2oc2ccc(Br)cc23)CC1 was read as A488 fluor inactive, A647 autofl 1e-09, Resorufin autofl inactive, AID923 2.7% and TSHR agonist inconclusive.
`CCn1c2c(c3cc(C(=O)O)ccc31)CCCC2=O` gave A488 fluor inactive, A647 autofl 2.6e-08, Resorufin autofl inactive, AID923 0.2% and TSHR agonist inconclusive.
`COCCNc1nc2c(c(=O)n(C)c(=O)n2C)n1Cc1cccc(C)c1` gave A488 fluor inactive, A647 autofl 6.3e-09, Resorufin autofl inactive, AID923 2.1% and TSHR agonist 8%.
For CN(C(=O)c1cccnc1)c1nc(-c2ccccc2)cs1 the results were A488 fluor inactive, A647 autofl 1.9e-08, Resorufin autofl inactive, AID923 2.4% and TSHR agonist 0%.
For Cc1occc1-c1nnc(SCC(=O)c2ccccc2)n1CC1CCCO1 (stereo not drawn) the results were A488 fluor inactive, A647 autofl 1.4e-08, Resorufin autofl inactive, AID923 -1.8% and TSHR agonist inconclusive.
`CN(Cc1ccco1)c1ncncc1-c1ccc2c(c1)OCO2` gave A488 fluor inactive, A647 autofl 8.6e-09, Resorufin autofl inactive, AID923 2.0% and TSHR agonist 25µM*.
`COc1ccc(-c2noc(C3CCCN(S(=O)(=O)c4ccc(C)c(Cl)c4)C3)n2)cc1OC` (stereo not drawn) gave A488 fluor inactive, A647 autofl 1.3e-08, Resorufin autofl inactive, AID923 -0.4% and TSHR agonist 8%.
Cc1ccc(C(C)C)c(OCc2nnc(SCC(=O)Nc3nccs3)n2C)c1 was read as A488 fluor inactive, A647 autofl 1e-09, Resorufin autofl inactive, AID923 -2.4% and TSHR agonist -1%.
Cc1cc(C(=O)N2CCc3ccccc32)c2cc(F)ccc2n1 was read as A488 fluor inactive, A647 autofl 2.4e-09, Resorufin autofl inactive, AID923 5.0% and TSHR agonist 14%[11.4 µM].
Screening O=C(CSc1nc2ccc(Cl)cc2[nH]1)NCc1ccco1 returned A488 fluor inactive, A647 autofl 6.7e-09, Resorufin autofl inactive and AID923 -1.1%.
O=C(CN1CCC2(CC1)OCCO2)c1ccc2cc[nH]c2c1 was read as A488 fluor inactive, A647 autofl 4.9e-09, Resorufin autofl inactive, AID923 3.4% and TSHR agonist 7%.
CCOC(=O)c1[nH]c2ccc(OC)cc2c1NC(=O)CCN1CCCC(C)C1 (stereo not drawn) was read as A488 fluor inactive, A647 autofl 5.5e-08 and Resorufin autofl inactive.
`CCOc1ccccc1OCCCC(=O)N1CCN(S(=O)(=O)c2cccc(F)c2)CC1` gave A488 fluor inactive, A647 autofl 4.6e-09, Resorufin autofl inactive, AID923 0.8% and TSHR agonist -1%.
`CC(C)Cc1cc(C(=O)Nc2ccc(F)cc2F)no1` gave AID923 -0.4% and TSHR agonist 6%.
For CCC(=O)c1ccc(OCc2ccc(C(=O)OC)o2)c(OC)c1 the results were AID923 2.1% and TSHR agonist -5%.
CCOc1ccc(C2=Nn3cnnc3SC2)cc1 was read as A488 fluor inactive, A647 autofl 1.4e-09, Resorufin autofl inactive, AID923 -0.7% and TSHR agonist -2%.
